# Mtb H37Rv = Mycobacterium tuberculosis H37Rv growth inhibition, cell based, confirmatory dose response (AID 1949). hit rate 1.6% among 100,000. inhibition, % at 10 µg/mL; hits with a dose series show IC50 in µg/mL. most inactive calls were filed without a number and no value below 0 was filed;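 active = confirmed in a dose series; inconclusive = about 50% or more but not retested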;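 note: bacteria grown 7 days with compound before Alamar blue readout; 0% = untreated bacteria and 100% = reference antibiotic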
# An asterisk follows results filed as active; i = inactive; ? = inconclusive. Some of the compounds tested; rates above refer to the full screens.
cpd	Structure	Mtb H37Rv
1	CCCOc1ccc(C(=O)NC(=S)Nc2cc(C(=O)O)ccc2OC)cc1	i
2	Cc1ccc(NC(=O)c2ccc(OC(=O)CN3C(=O)c4ccccc4C3=O)cc2)cc1	i
3	C=CCc1cc(C)ccc1OCCOCCNCCN	i
4	COc1ccc(N2CCN(C(=O)C3CCC(=O)N3S(=O)(=O)c3ccc(C)cc3)CC2)cc1 (stereo not drawn)	1.1%
5	O=C(O)C1CC=CCC1C(=O)NCc1ccc2c(c1)OCO2 (stereo not drawn)	i
6	O=C(COc1ccc(Cl)cc1Cl)Nc1cc(C(F)(F)F)ccc1N1CCOCC1	i
7	CSc1cccc(NC(=O)COc2c(C)cccc2C)c1	0.2%
8	CCOC(=O)c1sc(NC(=O)c2ccoc2C)c(C(=O)OCC)c1C	3.7%
9	Cc1ccc(C(=O)Nc2ccc3c(c2)CCC3)o1	35.7%
10	O=C1CN(c2ccc(Cl)cc2)C(=O)N1Cc1ccccc1	i
11	CCCC(=O)Nc1ccccc1NC(=O)c1cc(Cl)ccc1OC	i
12	CC1C(O)=C(c2nc3ccccc3[nH]2)C(=N)N1c1ccccc1 (stereo not drawn)	?
13	CN(C(=O)N1CCN(C(c2ccccc2)c2ccccc2)CC1)c1ccccc1	0.3%
14	CCc1nnc(NS(=O)(=O)c2ccc(NC(=O)c3cccc(N4C(=O)CCC4=O)c3)cc2)s1	i
15	O=C(Nc1ccc2nsnc2c1)N1CCCC1	i
16	O=C(Nc1ccc2oc(-c3ccccc3)nc2c1)c1ccccc1Br	i
17	Cn1c(NC(=O)c2cc(-c3ccc4c(c3)OCO4)nc3ccccc23)cc(=O)n(C)c1=O	i
18	Cc1cc(C)c(NC(=O)C(C)N(c2ccccc2)S(C)(=O)=O)c(C)c1 (stereo not drawn)	i
19	COc1ccc(O)c(-c2cn[nH]c2-c2cccs2)c1	i
20	Fc1ccc(NC(=S)NCc2cccs2)cc1Cl	i
21	Cc1ccccc1OCC(=O)Nc1ccc(N2CCCCC2)c(Cl)c1	29.1%
22	CCc1nc2ccccc2c2nc(NC(=O)C(F)(F)F)nn12	i
23	Cc1ccc([N+](=O)[O-])c(OCCN2CCNCC2)c1	0.1%
24	COc1c2ccoc2nc2c(OC)cccc12	1.76µg/mL*
25	O=C(CN(Cc1ccccc1)S(=O)(=O)c1ccc(Br)cc1)N1CCCC1	i
26	Cn1c(SCc2nc(-c3ccccc3)no2)nnc1-c1ccco1	i
27	N#CCc1ccc(NC(=O)CSCc2c(Cl)cccc2Cl)cc1	i
28	C=CCOc1ccc2ccccc2c1CNCc1cccnc1	i
29	COC(=O)Cc1cc(=O)oc2cc(O)ccc12	i
30	Cc1nn(C)c(C)c1NC(=O)Nc1cccc(C(F)(F)F)c1	i
31	CCOC(=O)c1c(NC(=O)CSc2nnc(-c3ccncc3)n2-c2ccccc2)sc2c1CCCC2	20.0%
32	OC(COc1ccc(F)cc1)Cn1cnc(-c2ccccc2)c1 (stereo not drawn)	8.2%
33	COc1ccc(CN=C2NC(=O)CC(C(=O)Nc3ccc(F)cc3)S2)cc1 (stereo not drawn)	i
34	O=C(Nc1nc(-c2ccc(Cl)cc2)cs1)c1ccc2ccccc2c1	0.6%
35	O=C(O)c1cccc(NC(=S)NC(=O)c2ccc(OCc3ccccc3)cc2)c1	i
36	COc1ccc(C(=O)CSc2nc(C)[nH]c2[N+](=O)[O-])cc1Br	0.2%
37	Cc1cc(C)nc(NS(=O)(=O)c2ccc(NC(=O)C3(c4ccccc4)CCOCC3)cc2)n1	i
38	O=C(c1cccc(I)c1)N1CCN(c2ncccn2)CC1	1.1%
39	CN(C)C(=O)c1cn(-c2ccccc2)nc1-c1ccc([N+](=O)[O-])cc1	1.0%
40	O=C(O)CC(c1ccccc1)c1ccc(O)c(Cl)c1Cl (stereo not drawn)	3.5%
41	O=C(CN(c1cccc([N+](=O)[O-])c1)S(=O)(=O)c1ccccc1)Nc1ccc2c(c1)OCCO2	i
42	COc1ccc(OC(C)C(=O)NC(C)C)cc1 (stereo not drawn)	i
43	Cc1ccc(C(C)C)c(OCC(=O)Nc2ccc(S(=O)(=O)Nc3ccccn3)cc2)c1	i
44	O=C(O)c1ccc2c(c1)C(=O)N(Cc1ccco1)C2=O	i
45	COc1ccc2cc(C=O)c(=O)[nH]c2c1	i
46	CCc1cccc(CC)c1NC(=O)Cc1ccccc1[N+](=O)[O-]	i
47	O=C(Nc1c(C(=O)NCc2ccco2)cnn1-c1ccccc1)c1cccc(F)c1	i
48	Cc1c(/C(O)=C2\C(=O)C(=O)N(CCN3CCOCC3)C2c2cccc([N+](=O)[O-])c2)cnn1-c1ccccc1 (stereo not drawn)	i
49	COc1cccc(COc2cc(C)cc3oc(=O)cc(-c4ccccc4)c23)c1	22.4%
50	CC(NC(=S)Nc1cccc([N+](=O)[O-])c1)c1ccc(C(C)(C)C)cc1 (stereo not drawn)	i
51	O=C(c1ccc(NS(=O)(=O)c2cccc3cccnc23)cc1)N1CCOCC1	i
52	CCOC(=O)c1ccc(NC(=O)CC2C(=O)N(c3ccc(OC)cc3)C(=O)N2Cc2ccc(OC)cc2)cc1 (stereo not drawn)	i
53	CCOc1ccc(C(C)NC(=O)c2ccccc2Cl)cc1 (stereo not drawn)	0.6%
54	COCCNC(=O)c1ccccc1NC(=O)CSCc1ccc(OC)cc1	i
55	COc1ccc(Cl)cc1NC(=O)NNC(=O)c1oc2ccccc2c1C	i
56	CCOC(=O)COc1c(I)cc(C2C(C(=O)OC)=C(C)NC(C)=C2C(=O)OC)cc1OCC	i
57	CCOC(=O)N1CCN(C(=O)Cc2cccs2)CC1	i
58	CCC(Cc1ccccc1)NC(=O)c1ccco1 (stereo not drawn)	5.7%
59	COc1ccc(S(=O)(=O)Nc2ccc(CSc3ccccc3)cc2C)c(Cl)c1Cl	i
60	Cc1cc(C)n2nc(C(=O)Nc3cccnc3)nc2n1	i

# The closing 2 entries of the section above lead into the next.
cpd	Structure	Mtb H37Rv
59	COc1ccc(S(=O)(=O)Nc2ccc(CSc3ccccc3)cc2C)c(Cl)c1Cl	i
60	Cc1cc(C)n2nc(C(=O)Nc3cccnc3)nc2n1	i
61	COc1ccc(OC)c(N(CC(=O)NCc2ccc(Cl)cc2)S(=O)(=O)c2ccc(OC)c(OC)c2)c1	i
62	CCOc1ccc(-n2c(-c3ccccc3)n[nH]c2=S)cc1	i
63	COC(=O)c1cc(OC)c(OC)cc1NC(=O)c1csc(C)c1	i
64	O=C(CCN1C(=O)c2ccccc2C1=O)Nc1cccc(Cl)c1	i
65	CC(C)(O)C#Cc1ccc(C(=O)N2CCN(c3ccccc3Cl)CC2)cc1	4.9%
66	CCCCCOc1ccc(NC(=O)C(=O)NCCc2ccc(OC)cc2)cc1	i
67	COc1ccc(N2CCN(c3ncnc4c3cnn4-c3cccc(C)c3)CC2)cc1	13.9%
68	O=S(=O)(Nc1ccc(N2CCOCC2)cc1)c1cccs1	i
69	COC(=O)c1c(NC(=S)N2CCN(Cc3cccc(OC)c3)CC2)sc(C)c1C	8.1%
70	O=C(Nc1ccc([N+](=O)[O-])cc1)c1nc[nH]c1C(=O)NCc1ccccc1	7.92µg/mL*
71	Cc1cc(N2C(=O)c3ccccc3C2=O)no1	i
72	Cc1cc(OCC(=O)c2cccc([N+](=O)[O-])c2)c2c3c(c(=O)oc2c1)CCC3	0.9%
73	COC(=O)c1ccc(NC(=O)COc2ccccc2F)cc1	i
74	CCCC(=O)Nc1ccccc1NC(=O)COc1ccc(Br)cc1C	i
75	CC(C)(C)c1cc(Cl)ccc1OCCn1cnc2ccccc2c1=O	32.5%
76	O=C(CC1Sc2ccccc2NC1=O)Nc1ccc(-c2ccccc2)cc1 (stereo not drawn)	i
77	CSc1ccc(C2C(C(=O)Nc3cccnc3)=C(C)NC3=C2C(=O)CCC3)cc1 (stereo not drawn)	i
78	C=CCc1c(C)nc(SCc2ccccc2)[nH]c1=O	i
79	CCCCNC(C)CCC(C)Oc1ccccc1C (stereo not drawn)	2.0%
80	CC(C)c1ccc2oc(-c3ccc(NC(=O)c4cncc(Br)c4)cc3)nc2c1	1.4%
81	O=C(O)CSc1cc(NS(=O)(=O)c2cccc([N+](=O)[O-])c2)c2ccccc2c1O	1.0%
82	CCOC(=O)c1cc(NC(=O)CCCc2ccc(OC)c(C)c2)ccc1Cl	9.2%
83	O=C1C2C(C(=O)N1CCO)C1C=CC2C12CC2 (stereo not drawn)	0.4%
84	O=c1[nH][nH]c(=S)n1-c1ccccc1O	i
85	COC(=O)c1cc(OC)c(OC)cc1NC(=O)c1cccc(OC)c1OC	i
86	COc1ccc(Cl)cc1C(=O)NNC(=O)Cc1ccccc1	i
87	S=C(NC1CCCC1)N1CCN(c2ccccn2)CC1	i
88	N#Cc1cn(CC(=O)Nc2ccc(Br)cc2)c2ccccc12	i
89	Cc1cc(F)ccc1S(=O)(=O)Nc1cccc2ccccc12	1.9%
90	O=C(c1ccc(Br)cc1)c1cc([N+](=O)[O-])ccc1N1CCOCC1	i
91	COc1ccc(C(C)NC(=S)NC2CCCC2)cc1OC (stereo not drawn)	i
92	COc1cc(CNCCCN2CCOCC2)cc(Cl)c1OCC(=O)NC(C)(C)C	i
93	O=S(=O)(NCc1ccccc1)c1ccc(NC(=S)NCc2ccco2)cc1	i
94	CCCc1[nH]n(-c2ccc([N+](=O)[O-])cc2)c(=O)c1C=NCCN1CCNCC1	i
95	CCc1cccc(C)c1NC(=O)C1CCCO1 (stereo not drawn)	i
96	COc1ccc(Nc2nc(-c3ccccc3O)nc3ccccc23)c(OC)c1	i
97	CCN(CC)c1ccc(NC(=O)CSc2nc3ccccc3o2)cc1C	1.2%
98	O=C(NCc1cccnc1)c1ccc2c(c1)C(=O)N(Cc1cccnc1)C2=O	4.6%
99	CCOc1ccc(NC(=O)CSc2nnc(COc3ccccc3)n2-c2ccccc2)cc1	i
100	CCOC(=O)c1c(C)oc2cc(Br)c(OCC#N)cc12	i
101	O=S(=O)(c1ccccc1)N1N=C(c2cccs2)CC1c1ccc(Br)cc1 (stereo not drawn)	i
102	CCOC(=O)C1=C(C)N=c2s/c(=C\c3ccc(OC(C)=O)c(OC)c3)c(=O)n2C1c1cccc([N+](=O)[O-])c1 (stereo not drawn)	0.9%
103	O=C(NCC1COc2ccccc2O1)c1ccc(NC(=O)c2ccc([N+](=O)[O-])cc2)cc1 (stereo not drawn)	49.0%
104	CC(C)CNS(=O)(=O)c1ccc(CCC(=O)Nc2ccc(C(C)C)cc2)cc1	0.4%
105	COC(=O)c1ccccc1NC(=O)CSC1=NC(c2ccccc2)CC(=O)N1 (stereo not drawn)	1.2%
106	CC(=O)Nc1cccc(NC(=S)Nc2ccc(S(N)(=O)=O)cc2)c1	i
107	Cc1cc(C(=O)N2CCN(Cc3ccc4c(c3)OCO4)CC2)c(C)o1	i
108	CCc1c(C)sc(NC(=S)Nc2ccc(S(=O)(=O)Nc3cc(OC)ncn3)cc2)c1C(=O)OC	i
109	Cc1sc(NC(=O)Cc2cccs2)c(C#N)c1-c1ccccc1	i
110	CCc1ccc(NS(=O)(=O)c2ccc(OC)c(Br)c2)cc1	i
111	O=C(Cc1cccs1)Nc1ccc(S(=O)(=O)Nc2nccs2)cc1	0.9%
112	O=C(CCC1CCCC1)Nc1ccc(Nc2ccccc2)cc1	i
113	c1coc(CNc2nc3ccccc3n2CCN2CCOCC2)c1	i
114	O=C(CN1C(=O)c2ccccc2C1=O)OCc1cccc(Oc2ccccc2)c1	3.8%
115	COc1ccc2c(Cl)c(C(=O)Nc3cc(C)ccc3C)sc2c1Cl	i
116	Cc1cccnc1NC(=O)C(C)Oc1cccc(Cl)c1 (stereo not drawn)	i
117	CCCn1nnc(NC(=O)c2cc(C)cc(C)c2)n1	i
118	Cc1ccc([N+](=O)[O-])cc1NC(=S)NC(=O)c1ccc(C(C)(C)C)cc1	i
119	CCc1cc(=O)oc2cc(OCc3cc(OC)c(OC)c(OC)c3)c(Cl)cc12	2.1%
120	O=C(N1CCCCC1)N1CCN(C(=O)N2CCOCC2)CC1	i

# Next structures.
cpd	Structure	Mtb H37Rv
121	CCOC(=O)COc1ccc(OCc2ccccc2)cc1	1.21µg/mL*
122	CCOC(=O)CCc1c(C)c2cc(Cl)c(OCc3cccc(F)c3)cc2oc1=O	i
123	Cc1cc(Br)ccc1NC(=O)c1ccc2c(c1)C(=O)N(CC(C)C)C2=O	i
124	COc1ccc(NC(=O)c2c(NC(=O)c3cccs3)sc3c2CCC3)cc1	i
125	COC(=O)C1=C(C)NC2=C(C(=O)CC(c3ccccc3OC)C2)C1c1cccc(O)c1 (stereo not drawn)	3.9%
126	COc1cc(C)c(Cl)cc1S(=O)(=O)N1CCCCC1	0.2%
127	CC(=O)c1cccc(NC(=O)COc2ccc3ccccc3c2Br)c1	i
128	Cc1cc(=O)[nH]c(Nc2nc(-c3ccccc3)c3cc(Cl)ccc3n2)n1	i
129	O=C(OCc1ccc(F)cc1)c1ccc(Br)cc1	6.7%
130	Cc1ccc(Cn2c(CCNC(=O)Cc3ccccc3)nc3ccccc32)cc1	i
131	N#C/C(=C/c1ccc(O)c(Br)c1)c1ccc([N+](=O)[O-])cc1	i
132	CCOC(=O)c1ccc(Nc2nnc(C)c3ccccc23)cc1	i
133	Cc1c(C)c2ccc(OCc3cccc4ccccc34)cc2oc1=O	i
134	CN1CCN(CCCCOc2cccc3ccccc23)CC1	i
135	Cc1ccc2nc(-c3ccc(I)cc3)cc(C(=O)O)c2c1	i

# Laid out differently: entries from further up
[135] Cc1ccc2nc(-c3ccc(I)cc3)cc(C(=O)O)c2c1
  Mtb H37Rv: i

[132] CCOC(=O)c1ccc(Nc2nnc(C)c3ccccc23)cc1
  Mtb H37Rv: i

[126] COc1cc(C)c(Cl)cc1S(=O)(=O)N1CCCCC1
  Mtb H37Rv: 0.2%

[124] COc1ccc(NC(=O)c2c(NC(=O)c3cccs3)sc3c2CCC3)cc1
  Mtb H37Rv: i

# Bioassay records (PubChem BioAssay)
